UCH37 DUB inh: human UCH37 deubiquitinating enzyme inhibition; purified proteasome/UCH37, Ub-AMC cleavage fluorescence; inhibition, % (test concentration not listed); 330,000 compounds, 0.33% hits; Q9Y5K5;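 active means mean of two replicates above 20%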;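 further: 0% = compound-free wells with enzyme and 100% = wells lacking proteasome; stock transfer was 100 nL into about 20 µL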
Target sequence (Q9Y5K5 whole entry, looked up): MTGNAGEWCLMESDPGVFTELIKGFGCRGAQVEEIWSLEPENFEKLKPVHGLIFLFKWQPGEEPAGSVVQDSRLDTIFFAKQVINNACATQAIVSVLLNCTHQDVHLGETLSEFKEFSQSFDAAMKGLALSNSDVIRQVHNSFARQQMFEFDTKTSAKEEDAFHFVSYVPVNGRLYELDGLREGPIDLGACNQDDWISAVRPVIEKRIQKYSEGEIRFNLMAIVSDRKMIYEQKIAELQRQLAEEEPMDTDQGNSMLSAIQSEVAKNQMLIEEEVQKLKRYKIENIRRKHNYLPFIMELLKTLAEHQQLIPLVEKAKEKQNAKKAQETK
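Material: human UCH37 enzyme supplied as purified proteasome complex. Measure: % inhibition of Ub-AMC cleavage fluorescence. Medium: pH 7.4 Tris-HCl (50 mM) with ovalbumin, ATP-MgCl2, DTT. Times: 30 min preincubation with enzyme, 25 min cleavage at room temperature. Detection: AMC fluorescence intensity at 355/460 nm.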
Ecoli growth: blocks Escherichia coli growth | AID 1053175 | OD600 absorbance (concentration not given with the values) | OD600, 23 h; active compounds read low | 330,000 compounds, 0.21% hits;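 active means OD600 absorbance below the run mean of sample wells minus 3.6 SD, in any replicate, cut at about 0.56 in these data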;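 further: stock transfer was 300 nL into about 60 µL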
Vif A3G: HIV-1 Vif–A3G interaction blockers – biochemical, TR-FRET, GST-Vif 1-94, biotin-A3G peptide, dose response retest, primary screen (AID 1117319) | inhibition, %; hits with a dose series show IC50 in µM | 260,000 compounds, 0.57% hits | TR-FRET GST-Vif / biotin-A3G peptide binding; higher % means a stronger effect; test concentration not given here; strong numbers were not always called active;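 active means above the screen mean plus three standard deviations and confirmed in dose response; inconclusive means results disagree or hit not tested in dose response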;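 further: Vif residues 1-94 fused to GST binding biotinylated APOBEC3G peptide 110-148; 0% = full assay without inhibitor and 100% = GST in place of GST-Vif; retest series ran down from 100 µM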
HNF4A DNA FP: change in binding of human HNF4 alpha to DNA. HNF4a-FITC DNA binding, fluorescence polarization, 1 h. activity change, % at 10 µM. 360,000 compounds, 0.3% hits; in the data active means activity change above about 30%, passing the limit was not always enough;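 further: controls were the assay level and a saturating level of protein; the project sought stronger binding though the title names inhibitors; some compounds called inactive have numbers as strong as hits; positive values seem to mean higher polarization but the record does not say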
Target sequence (P41235 whole entry, looked up): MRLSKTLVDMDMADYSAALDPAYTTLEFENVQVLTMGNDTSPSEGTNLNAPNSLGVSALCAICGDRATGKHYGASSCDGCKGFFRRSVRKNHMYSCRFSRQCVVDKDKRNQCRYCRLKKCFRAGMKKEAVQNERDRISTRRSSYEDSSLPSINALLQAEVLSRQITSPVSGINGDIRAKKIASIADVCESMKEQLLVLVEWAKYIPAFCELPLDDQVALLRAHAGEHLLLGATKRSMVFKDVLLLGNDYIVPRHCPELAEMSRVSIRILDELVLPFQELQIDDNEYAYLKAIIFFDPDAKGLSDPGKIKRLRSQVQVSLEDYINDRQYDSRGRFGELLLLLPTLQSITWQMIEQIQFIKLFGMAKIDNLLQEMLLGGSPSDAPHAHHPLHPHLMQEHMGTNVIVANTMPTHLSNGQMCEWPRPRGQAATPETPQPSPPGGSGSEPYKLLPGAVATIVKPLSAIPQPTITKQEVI
MLL AF4-AF9 inh: MLL-AF4/AF9 protein interaction inhibition | AID 651704 | 350,000 compounds, 0.47% hits | AlphaScreen, biotin-AF4 peptide binding to FLAG-AF9 | inhibition, % at 10 µM | P42568;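 active means every replicate reaching a set inhibition limit, whatever the replicate mean, cut at about 25% in these data; inconclusive means mean inhibition reaches that limit but some replicates miss it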;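 further: 0% = plate neutral control median and 100% = total signal loss; the record names both 10 and 1 µM as test concentration; the first replicate is given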
FGF22 binding: FGF22 (human) thermal shift binding; Q9HCT0; recombinant FGF22 thermal shift, SYPRO orange fluorescence; percent of sucrose octasulfate shift, DMSO zero; calls only at 9.99 µM; 340,000 compounds, 1.5% hits;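 active means melting point raised past a set limit in the mean and every replicate; inconclusive means no clear call; three in four hits are not shown here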
Target sequence (Q9HCT0 whole entry, looked up): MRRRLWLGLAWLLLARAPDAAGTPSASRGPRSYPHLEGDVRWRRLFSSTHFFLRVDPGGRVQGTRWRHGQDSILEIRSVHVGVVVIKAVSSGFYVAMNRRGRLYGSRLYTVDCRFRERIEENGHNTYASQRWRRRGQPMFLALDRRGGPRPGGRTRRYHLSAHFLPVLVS
RanGTP-Impb inh: inhibitors of RanGTP-importin-beta interaction, primary screen, biochemical, FRET, CFP-Ran, YFP-importin-beta, homogeneous; inhibition, % (no concentration beside the values); 300,000 compounds, 1.1% hits; AID 2216; cell-free CFP-Ran/YFP-importin-beta FRET ratio;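 active means most replicates above 15%; inconclusive means exactly half above 15%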;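 further: 0% = DMSO wells and 100% = Ran loaded with GDP instead of GTP; wells of about 40 µL received 100 nL stock; the first replicate is given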
* = called active by the depositor; i = inactive; ? = inconclusive; / = not tested or not shown; & = joins results of further samples.

SMILES	UCH37 DUB inh	Ecoli growth	Vif A3G	HNF4A DNA FP	MLL AF4-AF9 inh	FGF22 binding	RanGTP-Impb inh
CCOC(=O)c1c(C)nc2c(c1-c1cc(OC)ccc1OC)C(=O)CC(C)(C)C2	3.6	0.6	-7%	2.1	-0.9	i	0.5
CCOC(=O)NC(=O)/C(N=Nc1cc(C)cc(C)c1)=C(\C)O	0.6	0.71	/	1.6	-0.3	i	5.3
Cc1noc(C)c1COc1ccccc1C(=O)N1CCN(S(=O)(=O)c2ccccc2C#N)CC1	0.4	0.69	/	-1.1	-9.5	i	/
CC(C)OC(=O)c1c(NC(=O)c2ccco2)sc2c1CCCCC2	-80	0.77	15%	-1.4	/	/	1.8
Cc1ccc2nc(NC(=O)CSc3nc(=O)n(CCCN(C)C)c4c3CCC4)sc2c1	4.7	0.62	-3%	2.4	7.2	/	1.5
C=CCOc1ccc(/C=C/C(=O)OCC(=O)N2CCN(C(C)=O)CC2)cc1	1.7	0.61	3%	0.4	-1.0	i	/
NNc1ccc(Cl)c(C(=O)O)c1	0.3	0.7	/	-0.1	/	i	4.7
CN(Cc1ccccc1)C(=O)CN(C1CCCCC1)S(C)(=O)=O	2.9	0.72	0%	0.4	/	/	-0.1
O=C1CCCC(O)=C1N=Nc1ccc(C(=O)O)cc1	19	0.74	2.7µM*	-35	-1.2	i	-1.9
O=C(CSc1ccccc1C(=O)O)NC1CCCCCC1	2.6	0.69	-11%	1.1	-13	i	-0.6
O=c1c2c(nc3nc(NCc4cccc(Cl)c4)[nH]n13)CCC2	4.6	0.68	6%	-0.6	-1.4	i	1.5
O=C(NC1=NCCS1)C12CC3CC(CC(C3)C1)C2	4.8	0.7	9%	2.6	-8.4	i	-1.1
C=CCn1c(=O)c(C(=O)OCC)c(O)c2ccccc21	4.0	0.68	15%	-3.2	-5.5	i	-0.2
COc1ccc(C(=O)Nc2cc(C)on2)cc1OC	3.9	0.69	/	-3.0	2.6	i	2.1
Cc1nc(SCc2ccccc2C#N)n[nH]1	2.3	0.67	-3%	3.0	-1.7	i	0.7
COc1cc(CN2CCN(Cc3ccc(C)cc3)C(CCO)C2)ccc1O (stereo not drawn)	3.3	0.67	/	-0.3	-0.1	i	-1.9
CCOC(=O)C1C(C(=O)OC)=C(c2ccc(OC)cc2)c2ccc(OC)cc2N1S(=O)(=O)C(F)(F)F (stereo not drawn)	-4.1	0.68	0%	-0.9	/	/	/
CCCC(=O)n1nc(-c2cccnc2)nc1N	3.6	0.71	1%	-0.2	/	/	-1.6
CCOC(=O)Cc1csc(NC(=O)CSc2nnc(-c3ccncc3)n2Cc2ccco2)n1	0.7	0.7	/	-2.4	/	/	-2.7
O=C1CC(NC2CCN(C(=O)c3cccc(F)c3)CC2)C(=O)N1 (stereo not drawn)	1.3	0.71	/	-1.6	0.3	i	1.0
CN(C)C(=O)C[n+]1ccc(C(N)=O)cc1	3.0	0.68	3%	-0.3	1.0	i	-1.8
CCOc1ccc(C(=O)N(Cc2ccccc2)c2cccc(C)c2)cc1OC	-2.5	0.71	/	0.7	-0.7	i	-1.2
N#Cc1ccc(S(=O)(=O)NCC(=O)OCC(=O)N2CCCC2=O)cc1	0.7	0.67	2%	-3.8	-18	i	/
NCCCS(=O)(=O)O	5.2&-0.5	0.66&0.65	26%	0.7&2.2	-0.8&-1.4	i	-1.2

Reprinted from the part before: 3 compounds, then new ones.
SMILES	UCH37 DUB inh	Ecoli growth	Vif A3G	HNF4A DNA FP	MLL AF4-AF9 inh	FGF22 binding	RanGTP-Impb inh
CCOc1ccc(C(=O)N(Cc2ccccc2)c2cccc(C)c2)cc1OC	-2.5	0.71	/	0.7	-0.7	i	-1.2
N#Cc1ccc(S(=O)(=O)NCC(=O)OCC(=O)N2CCCC2=O)cc1	0.7	0.67	2%	-3.8	-18	i	/
NCCCS(=O)(=O)O	5.2&-0.5	0.66&0.65	26%	0.7&2.2	-0.8&-1.4	i	-1.2
Cc1cc(-c2ccccc2)n2nc(C)c(-c3ccccc3)c2n1	2.6	0.79	-5%	3.5	/	/	1.6
Cc1ccc(C)c(Oc2cc(F)nc(N)n2)c1	4.5	0.67	/	1.3	1.1	i	-0.9
Cc1ccc2nc(NC(=S)NC(=O)c3cccs3)sc2c1	-1.5	0.69	-7%	0.6	/	/	2.0
COc1ccccc1NC(=O)Nc1nc(CC(=O)Nc2cccc(F)c2)cs1	3.0	0.54	0%	-1.5	11	i	3.5
N#C/C(=C\c1ccc(OCc2cccc(C(=O)O)c2)cc1)C(=O)NCc1ccco1	5.4	0.71	9%	2.4	1.5	i	4.0
CCOC(=O)C(C)Sc1ccc2nnc(CCNS(=O)(=O)c3ccc(C)cc3)n2n1 (stereo not drawn)	-1.8	0.68	-7%	-5.6	-0.4	i	?
COc1ccc(CCNS(=O)(=O)c2ccccc2)cc1OC	0.5	0.68	1%	2.3	/	/	-11
CN1CCN(C(=O)C2CC(c3c(F)cccc3Cl)=NO2)CC1 (stereo not drawn)	4.1	0.69	1%	3.8	/	/	-1.7
C[N+](C)(C)CCN1C(=O)CSC1=O	2.5	0.64	?	-3.7	-1.2	i	3.9
Nc1c(-c2ccc(Cl)cc2)cnc2c(-c3ccc(F)cc3)cnn12	-92	0.66	-4%	0.5	-1.8	i	3.5
O=C(Cc1c(F)cccc1Cl)Nc1cccnc1	0.8	0.67	-2%	0.6	-3.0	i	-0.9
COc1ccc(CNC(=O)[C@H](Cc2c[nH]c3ccccc23)NC(=O)[C@@H]2Cc3ccccc3CN2)cc1	0.6	0.69	/	1.3	4.6	i	1.7

Random excerpt: two records from the list
SMILES	UCH37 DUB inh	Ecoli growth	Vif A3G	HNF4A DNA FP	MLL AF4-AF9 inh	FGF22 binding	RanGTP-Impb inh
Nc1c(-c2ccc(Cl)cc2)cnc2c(-c3ccc(F)cc3)cnn12	-92	0.66	-4%	0.5	-1.8	i	3.5
COc1ccccc1NC(=O)Nc1nc(CC(=O)Nc2cccc(F)c2)cs1	3.0	0.54	0%	-1.5	11	i	3.5

Further compounds follow.
SMILES	UCH37 DUB inh	Ecoli growth	Vif A3G	HNF4A DNA FP	MLL AF4-AF9 inh	FGF22 binding	RanGTP-Impb inh
Cn1cc([N+](=O)[O-])c(C(=O)NC2CCCCCC2)n1	2.3	0.67	/	2.2	-0.5	i	1.0
Cc1onc(C(=O)NCc2cccs2)c1[N+](=O)[O-]	0.3	0.69	-9%	6.8	0.2	i	3.6
c1ccc(N2CCN(c3ncnc4c3oc3ccccc34)CC2)cc1	-2.1	0.7	-18%	2.4	/	/	-4.1
CN(Cc1ccno1)Cc1cn(Cc2ccccc2)nc1-c1ccc2c(c1)OCO2	1.8	0.71	/	-1.0	1.3	i	2.1
O=C(O)c1ccc(COc2ccc3ccccc3c2/C=C2/NC(=O)N(Cc3ccc(F)cc3)C2=O)cc1	2.3	0.69	-1%	2.1	-1.0	i	/
Cc1oc2ccc(O)cc2c1C(=O)c1ccc(Cl)cc1	3.6	0.7	-2%	-3.0	/	/	2.1
COc1ccc(-c2cc3n(n2)CCc2nc4ccccc4n2-3)cc1	0.1	0.59	-8%	-0.7	/	/	-2.1
O=C(c1cc2ccccc2oc1=O)N1CCN(C(=O)C2CCCO2)CC1 (stereo not drawn)	-0.5	0.72	17%	-5.3	1.5	i	3.3
Cc1nc([N+](=O)[O-])c(Sc2nc3ccccc3n2C)n1Cc1ccccc1	3.1	0.67	6%	2.3	-7.8	i	-0.2
Cc1ccc(S(=O)(=O)/N=C/N(C)C)cc1	/	/	-6%	-2.2	/	/	2.2
O=Cc1cn(-c2ccccc2)nc1-c1cc2ccccc2oc1=O	-8.1	0.69	-5%	0.1	/	/	-1.1
CC(=O)N1CCN(c2ccc(NC(=O)c3ccc4c(c3)OCCO4)cc2)CC1	2.0	0.64	10%	0.0	6.0	i	-1.3
CCC(/C=N/Nc1ccc(S(=O)(=O)N2CCCC2)cc1[N+](=O)[O-])CC	/	/	-6%	-0.8	-1.1	i	0.7
O=C(N/N=C/c1ccc(OC(=O)c2ccc([N+](=O)[O-])cc2)cc1)c1cccnc1	/	/	2%	6.1	-0.9	i	3.3
COc1ccccc1NS(=O)(=O)c1cc2c3c(c1)CC(=O)N3CCC2	1.7	0.65	/	-5.8	2.9	i	-3.5
C/C(Cn1cnc([N+](=O)[O-])n1)=N\NC(=O)c1ccccc1F	/	/	0%	0.7	/	/	7.1
CC(C)CC(=O)N(c1nnc(-c2cccnc2)s1)C1CCCC1	5.7	0.69	/	1.6	4.9	i	2.1
CCCCOc1ccc(C(=O)N/N=C/c2cn[nH]c2-c2ccc(OC)c(OC)c2)cc1	/	/	16%	2.2	3.0	i	?
COc1ccc(C)cc1NC(=O)CN1CCN(S(=O)(=O)c2ccc(Cl)cc2)CC1	2.2	0.77	-3%	3.3	/	/	3.1
OC[C@H](O)[C@H](O)[C@@H](O)[C@@H](O)[C@@H]1SC(c2ccccc2)=NN1c1ccccc1	-4.2	0.61	/	-0.6	-1.5	i	2.0
O=C(CN1C(=O)COc2ccccc21)NCCCN1CCN(c2ccccc2F)CC1	3.2	0.66	6%	-1.1	2.8	i	0.7
COc1ccccc1S(=O)(=O)Cc1ccc(C(=O)NC2CCCCC2)o1	3.6	0.67	0%	1.7	/	/	0.0
CN(C)c1ccc(C(=S)N2CCOCC2)cc1Br	4.8	0.75	-6%	0.6	/	/	?
O=c1[nH]cccc1-c1nc2ccccc2n1Cc1ccc(F)cc1	-350	0.69	-4%	-0.5	3.8	i	-0.4
COc1cc([N+](=O)[O-])cc([N+](=O)[O-])c1NC(=O)N1CCOCC1	18	0.65	/	-0.3	1.3	i	4.9
C[C@]12CCC(=O)C=C1[C@H](O)C[C@@H]1[C@@H]2[C@@H](O)C[C@@]2(C)[C@H]1CC[C@]2(O)C(=O)CO	6.0	/	2%	-0.4	-5.1	i	-1.8
Nc1nnc(SCC(=O)NCCNC(=O)CSc2nnc(N)s2)s1	/	/	/	0.7	6.7	i	-0.3
CCCc1ccc(NC(=O)C2CCN(c3cnccn3)CC2)cc1	-21	0.62	/	-1.2	1.1	i	-2.6
CCn1c(SCC(=O)Nc2nc3ccccc3s2)nc2c(c1=O)SC(C)C2 (stereo not drawn)	1.4	0.69	0%	/	/	/	6.0
CC1CCN(C(=O)COC(=O)c2ccc(=O)n(Cc3ccccc3)n2)CC1	2.2	0.71	-7%	-36	-0.8	i	?
CC1CC(C)CN(CCCNC(=O)c2ccc3c(c2)NC(=O)C(N2CCCCC2)S3)C1 (stereo not drawn)	-2.9	0.78	-5%	2.3	/	/	-2.2
CCO[C@H]1OC(C(=O)N2CCN(C)CC2)=C[C@@H](c2ccc(Br)cc2)[C@@H]1CCCO	3.3	/	-11%	1.4	1.1&2.0	i	0.7
Cc1ccc(S(=O)(=O)NC2(C(F)(F)F)NC(=O)N(Cc3ccccc3)C2=O)cc1 (stereo not drawn)	-0.9	0.68	-1%	-2.4	-2.2	i	9.1
O=C1CCc2cc(S(=O)(=O)N3CCCC3C(=O)N3CCN(c4ccccc4)CC3)ccc2N1 (stereo not drawn)	4.0	0.73	2%	0.1	4.6	i	-2.2
Cc1ccc2cc(/C=C(\C#N)C(N)=O)c(N3CCCCC3)nc2c1	5.8	0.72	-14%	5.3	-1.9	i	-6.2
Cc1cc2c(cc(C(=O)OC(C)C(=O)NCc3ccc(F)cc3)n2C)o1 (stereo not drawn)	/	/	/	0.8	0.6	i	/
C[C@H](NC(=O)N1CCn2c1nc1ccccc12)C(=O)NCC1CCCO1 (stereo partly drawn)	5.4	0.67	/	-1.6	-2.2	i	-0.3
Cc1cc(C)n(-c2ccc(Cl)c(C(=O)NCc3ccccc3)n2)n1	4.8	0.69	-5%	-1.3	0.0	i	?
COc1cc(C(=O)NC2CCCC(C)C2C)ccc1OCC(=O)N1CCOCC1 (stereo not drawn)	2.6	0.67	0%	-3.7	-0.2	i	/

The list is partial. The share of hits here may be higher or lower than overall.
